# Marburg entry inh – Marburg virus entry inhibition; Marburg virus pseudotyped entry inhibition, cell reporter; control for the full effect not named in the record; about a third of the inactives were read at about 46 µM; Potency, µM (top dose mostly 37.8 µM), inactives show top-dose activity change, negative = inhibition, actives largely listed as inhibitors; 1.8% of 300,000 active; active = well fitted inhibition curve with a large enough effect; inconclusive = small, poorly fitted or top-dose-only effect, or effect the other way; inactive = flat fitted curve, though single readings scatter; tested in HEK293 cells; about a fifth of its hits are not listed in these tables; also: % is scaled to controls: 0 for no effect and ±100 for the full control effect; luciferase read-out
# Cruzain Triton – blocks cruzain activity in presence of Triton detergent. AID 1478. P25779. Potency, µM, for inactives: max response, negative = inhibition, actives largely listed as inhibitors. 0.43% of 200,000 active. purified cruzain, Z-FR-AMC fluorescence, 0.01% Triton; active = well fitted curve in the direction sought with a large enough effect; inconclusive = small, poorly fitted or top-dose-only effect, or another doubt; inactive = no such curve, though single readings can be large; an effect the other way counts as inactive or inconclusive;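 also: plate controls were neutral wells for no effect and buffer without enzyme for full effect; nearly all actives have a fitted effect of over 40% in size; top concentration of the series not given in the record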
# Target sequence (P25779 123-467 limits assumed): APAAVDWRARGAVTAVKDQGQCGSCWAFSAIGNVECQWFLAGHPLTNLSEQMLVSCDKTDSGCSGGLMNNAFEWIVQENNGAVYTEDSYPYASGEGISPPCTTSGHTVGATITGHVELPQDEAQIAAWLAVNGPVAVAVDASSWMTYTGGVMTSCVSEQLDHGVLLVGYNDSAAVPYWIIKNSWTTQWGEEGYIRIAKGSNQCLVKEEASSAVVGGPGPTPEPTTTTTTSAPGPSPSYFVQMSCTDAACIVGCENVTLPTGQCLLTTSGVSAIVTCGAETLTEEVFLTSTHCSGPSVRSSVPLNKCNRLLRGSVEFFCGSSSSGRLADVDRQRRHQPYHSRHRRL
#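 Sodium acetate buffer (100 mM, pH 5.5) containing 5 mM DTT and 0.01% Triton X-100 hosted 1.5 nM cruzain and test compound for 15 min at room temperature. Cleavage of 2 uM Z-FR-AMC was then tracked by fluorescence.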
# NS1 inh – inhibitors of influenza NS1 protein function. S. cerevisiae slowed by influenza A NS1, growth recovery by OD600. Potency, µM (top dose mostly 46.1 µM), inactives show at the highest dose activity, positive = more growth. 0.4% of 270,000 active. AID 2326; also: actives are rising curves; nearly all actives have a fitted effect of over 50% in size
#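 Compounds were scored for reversing the slow growth caused by influenza A NS1 in S. cerevisiae, measured by optical density at 600 nm. Assay medium contained 2% galactose at pH 6.0; NS1-free yeast of the same strain were the positive control.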
# LASV entry inh – Lassa virus entry inhibition; Potency, µM (series often up to 37.9 µM), inactives show at the top dose activity change, negative = inhibition, hits mostly inhibitors; AID 540256; Lassa virus pseudotype entry inhibition, cell reporter; control for the full effect not named in the record; 1.2% of 300,000 active; active means well fitted inhibition curve with a large enough effect; inconclusive means small, poorly fitted or top-dose-only effect, or effect the other way; inactive means flat fitted curve, though single readings scatter; tested in HEK293 cells; also: % is scaled to controls: 0 for no effect and ±100 for the full control effect; nearly all actives have a fitted effect of over 50% in size; luciferase read-out
# RE007 growth inh – less growth of the S. pombe RE007 Vpr strain | Potency, µM (top dose mostly 92.2 µM), inactives show top-dose activity change, negative = less growth | S. pombe RE007 Vpr strain, BacTiter-Glo ATP luminescence, 24 h; control for the full effect not named in the record | 0.21% of 360,000 active; active = well fitted falling curve with a large enough effect; inconclusive = small, poorly fitted or top-dose-only effect; inactive = no such curve, though single readings can be large or run the other way;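 also: % is scaled to controls: 0 for no effect and ±100 for the full control effect; nearly all actives have a fitted effect of over 50% in size; the assay follows cell death caused by Vpr and the record does not say whether a fall means rescue or toxicity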
#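 Fission yeast strain RE007, carrying one chromosomally integrated HIV-1 vpr copy, was seeded at OD 0.01 in PMG+AL medium with 23 nL pinned compound. After 24 h at 30 °C and 99% humidity, viability was read by BacTiter-Glo luminescence.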
# StopGo reporter – FMDV 2A StopGo reporter, luciferase signal; human cells with a luciferase reporter of 2A StopGo recoding; control for the full effect not named in the record; Potency, µM (highest dose often 57.9 µM), inactives show top-dose signal change, negative = less light; 1.2% of 410,000 active; AID 1159524; active = well fitted falling curve with a large enough effect; inconclusive = small, poorly fitted or top-dose-only effect; inactive = no such curve, though single readings can be large or run the other way; tested in HEK293T cells; also: % is scaled to controls: 0 for no effect and ±100 for the full control effect; nearly all actives have a fitted effect of over 45% in size; luciferase light after 4 h
# SARS PLpro yeast – inhibitors of SARS-CoV papain-like protease in yeast; S. cerevisiae expressing SARS-CoV PLpro, growth rescue; control for the full effect not named in the record; Potency, µM (titrated, usually from 32.9 µM), for inactives: top-dose activity, positive = growth rescue; 0.19% of 330,000 active; also: 0% is about no effect; nearly all actives have a fitted effect of over 55% in size; growth read by luminescence after 48 h
# Cruzain inh noDet – blocks cruzain activity in detergent-free assay; 2.3% of 200,000 active; P25779; Potency, µM, for inactives: max response, negative = inhibition, most hits filed as inhibitors; purified cruzain, Z-FR-AMC fluorescence, no detergent; active = well fitted curve in the direction sought with a large enough effect; inconclusive = small, poorly fitted or top-dose-only effect, or another doubt; inactive = no such curve, though single readings can be large; an effect the other way counts as inactive or inconclusive;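 also: plate controls were enzyme without inhibitor for no effect and buffer without enzyme for full effect; nearly all actives have a fitted effect of over 40% in size; top concentration of the series not given in the record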
#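 Purified cruzain at 1.5 nM, pre-incubated 15 min with compound at room temperature in 100 mM sodium acetate pH 5.5, 5 mM DTT, 0.00005% Triton X-100. Reaction started with 2 uM Z-FR-AMC; AMC fluorescence increase over 60 s gives rate.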
# * = called active by the depositor; u = inconclusive; x = no result given; & = joins results of further samples; [ ] = another dose, or the depositor's remark. Unless noted, calls follow the shape of the dose curve; as a rule, active means well fitted rising curve with a large enough effect; inconclusive means small, poorly fitted or top-dose-only effect; inactive means no such curve, though single readings can be large or run the other way. Potency is read from the fitted curve at half-maximal effect.
# Value order: Marburg entry inh | Cruzain Triton | NS1 inh | LASV entry inh | RE007 growth inh | StopGo reporter | SARS PLpro yeast | Cruzain inh noDet
- COC(=O)[C@H](Cc1ccccc1)NC(=O)NCc1ccc(C)cc1
 : u | x | -4% | u | 0% | -22% | 12% | x
- Cc1cccc(OCC(=O)NCc2nc(-c3ccccc3)no2)c1
 : x | x | -16% | x | 0% | -17% | -12% | x
- CC(=O)c1c(C)nc2cc(Cl)ccc2c1N
 : u | 1.1% | 5% | 1% | -22% | 18% | 1% | -2%
- Cc1onc(-c2ccccc2)c1C(=O)Nc1ccc(C(=O)N2CCCCC2)cc1
 : x | x | -4% | x | 37% | 1% | -3% | x
- CC1CCCCN1CC(O)COc1ccc(OCC(O)CN2CCCCC2C)cc1 (stereo unspecified)
 : u | x | 2% | -29% | -5% | -5% | 2% | x
- COc1cccc(Nc2ccc(Nc3cccc(OC)c3)nn2)c1
 : 0% | -9.1% | -2% | -14% | 9% | 5% | u | -7%
- COc1ccc(CNC(=O)CSc2n[nH]c(N)n2)cc1OC
 : 16%[46.1 µM] | x | -1% | 8% | 3% | 12% | -4% | x
- Cc1ccc(NC(=O)COc2ccc(/C=N\NC(=O)c3cccnc3)cc2)cc1C
 : x | x | -11% | x | 3% | 0% | -4% | x
- CC(C)n1c(SCC(=O)Nc2ccc(F)cc2)nnc1C1CC1
 : 19% | x | 10% | -5% | 4% | -5% | -5% | x
- Cc1cc(NC(=O)c2ccc3c(c2)C(=O)N(Cc2cccnc2)C3=O)no1
 : 11% | 9.7% | 2% | -3% | 3% | 37%[activator] | 1% | 4%
- CC1(C)COC(c2cccc([N+](=O)[O-])c2)OC1
 : 1%[46.1 µM] | x | x | 4%[46.1 µM] | 3% | -17% | x | x
- COc1cccc2c1Oc1ncccc1N(C(=O)CCC(=O)NCc1ccc(C)cc1)C2
 : x | -0.5% | -8% | -28%[46.1 µM] | 8% | -10%&-5% | 1% | 8%
- O=C(CN1CCN(S(=O)(=O)c2ccc(F)cc2)CC1)c1ccc(O)c(O)c1
 : -2%[46.1 µM] | x | x | -9% | -5% | -19% | 3% | x
- Cc1cc(C)cc(OCC(=O)O/N=C(\N)c2ccccn2)c1
 : 25% | 3.3% | -59% | 28% | -7% | 18% | 0% | 3%
- CN(c1cccc(NC(=O)c2ccccc2N(Cc2ccccc2)S(C)(=O)=O)c1)S(C)(=O)=O
 : x | x | -15% | x | 3% | -8% | 3% | x
- Cc1cc(C)n2nc(SCc3ccc(F)cc3Cl)nc2n1
 : x | x | -36% | x | -5% | u | -4% | x
- Cc1cc(C)cc(OCCCOc2cccc3cccnc23)c1
 : u | -15% | -109% | 7% | -22% | 0% | -32% | 3%
- CCCn1c(C)cc(C(=O)CN2C(=O)c3cccc(N)c3C2=O)c1C
 : 0% | 5.2% | 3% | u | -2% | 30%[activator] | -3% | -4%
- Cc1cc2cc(C)c3nnc(SCC(=O)Nc4ccc(S(=O)(=O)N5CCCCC5)cc4)n3c2cc1C
 : -17% | 0.2% | 7% | -1% | 0% | -13% | 10% | u
- CCc1cccc(NC(=O)CCCn2nc(CC)n3c(cc4occc43)c2=O)c1
 : x | x | 9% | x | -13% | -9% | -4% | x

# Retrieved by compound from the list above:
# Value order: Marburg entry inh | Cruzain Triton | NS1 inh | LASV entry inh | RE007 growth inh | StopGo reporter | SARS PLpro yeast | Cruzain inh noDet
- COc1cccc(Nc2ccc(Nc3cccc(OC)c3)nn2)c1
 : 0% | -9.1% | -2% | -14% | 9% | 5% | u | -7%
- Cc1cc(C)cc(OCC(=O)O/N=C(\N)c2ccccn2)c1
 : 25% | 3.3% | -59% | 28% | -7% | 18% | 0% | 3%
- COc1ccc(CNC(=O)CSc2n[nH]c(N)n2)cc1OC
 : 16%[46.1 µM] | x | -1% | 8% | 3% | 12% | -4% | x

# Next section
# Value order: Marburg entry inh | Cruzain Triton | NS1 inh | LASV entry inh | RE007 growth inh | StopGo reporter | SARS PLpro yeast | Cruzain inh noDet
- CCOc1ccc(NC(=O)CCC(=O)NNC(=O)c2cccc([N+](=O)[O-])c2)cc1
 : u | x | x | 8%[46.1 µM] | -23% | -14% | 20% | x
- CSc1ccc(CN2CCN(c3ccccc3C)CC2)cc1
 : u | x | -15% | -20% | -8% | u | 0% | x
- Cc1ccc2c(c1)CCCN2C(=O)CSc1ccccc1
 : x | x | -29% | x | -1% | 3% | 1% | x
- COc1ccc(/C=C/C(=O)O)cc1S(=O)(=O)NCC1CCCO1 (stereo unspecified)
 : x | x | 3% | x | -8% | -4% | -1% | x
- Cc1c(C#N)c2ncn(Cc3ccccc3)c(=O)c2n1-c1ccccc1
 : 1%[46.1 µM] | -0.8% | -20% | 6% | -7% | -23% | 2% | -4%
- CC1=Nc2cc(C(=O)O)ccc2Sc2ccc(C)cc21
 : -3%[46.1 µM] | x | x | 13%[46.1 µM] | 3% | 0% | 4% | x
- CCCC/C(O)=C1\C(=O)CCCC1=NCCc1c(C)[nH]c2ccccc12
 : x | x | -9% | x | -1% | -14% | -2% | x
- C=CCNC(=O)c1cc(Cl)ccn1
 : 15%[46.1 µM] | x | x | 8%[46.1 µM] | -14% | 2% | -3% | x
- Cc1ccc(C)c(-n2nnnc2SCC(=O)NCCC2=CCCCC2)c1
 : u | -3.8% | -39% | u | -5% | -6% | -10% | u
- C/C(N)=C(/C#N)C(=O)CSc1nnc(-c2ccccc2Br)o1
 : 6.3µM* | 1.2% | 4% | u | 2% | -18% | 4% | -30%
- CCC1CN(C(=O)N2CCC(C(=O)NCCCc3ccccc3)CC2)c2cc(C)ccc2O1 (stereo unspecified)
 : x | -2.8% | x | u | x | u | x | -2%
- CCc1cc2c(=O)c(-c3nc4ccccc4[nH]3)coc2c(CN2CCCCC2)c1O
 : x | x | 0% | x | -16% | -9% | 0% | x
- O=C(O)c1cc(-c2ccc(/C=N/N3C(=O)C4C5C=CC(C6CC56)C4C3=O)o2)ccc1Cl (stereo unspecified)
 : 15%[46.1 µM] | x | x | -9% | 25% | 17% | 1% | x
- COc1ccccc1N(CC(=O)NC1CCCCC1)C(=O)c1cnn(C(C)C)c1
 : 18% | -0.5% | -10% | 23% | -7% | 19% | -6% | 3%
- Cn1cccc1CC(=O)N/N=C\c1cccs1
 : 5% | 1.1% | 27% | 9% | -6% | 17% | 4% | -1%
- COCCN(Cc1cc2cc3c(cc2nc1Cl)OCO3)C(=O)Nc1ccccc1OC
 : u | -12% | 9% | -5% | -5% | x | 4% | 3%
- Cc1ccc(/C=C/C(=O)NC(=S)Nc2ccc(S(=O)(=O)Nc3cc(C)on3)cc2)cc1
 : 16%[46.1 µM] | x | 4% | 0%[46.1 µM] | -4% | 32%[activator] | 2% | x
- CCN(CC)S(=O)(=O)c1ccc2c(c1)N(CC(=O)Nc1ccc(F)cc1)C(=O)CO2
 : u | -0.4% | x | 4%[46.1 µM] | x | -7% | x | 4%
- CC(CCc1ccccc1)NC(=O)COc1ccc(S(=O)(=O)N2CCOCC2)cc1[N+](=O)[O-] (stereo unspecified)
 : u | -3.3% | -9% | -17% | 6% | 0% | 5% | u
- COc1ccc(CNC(=O)c2coc(=O)c3ccccc23)cc1
 : u | x | x | 21%[46.1 µM] | 0% | 7% | -3% | x

# Whole records, looked up by structure. Values in the order: Marburg entry inh | Cruzain Triton | NS1 inh | LASV entry inh | RE007 growth inh | StopGo reporter | SARS PLpro yeast | Cruzain inh noDet
# Record of `CCCC/C(O)=C1\C(=O)CCCC1=NCCc1c(C)[nH]c2ccccc12` = x | x | -9% | x | -1% | -14% | -2% | x
# Record of `C=CCNC(=O)c1cc(Cl)ccn1` = 15%[46.1 µM] | x | x | 8%[46.1 µM] | -14% | 2% | -3% | x
# Record of `Cn1cccc1CC(=O)N/N=C\c1cccs1` = 5% | 1.1% | 27% | 9% | -6% | 17% | 4% | -1%

# Next part.
# Value order: Marburg entry inh | Cruzain Triton | NS1 inh | LASV entry inh | RE007 growth inh | StopGo reporter | SARS PLpro yeast | Cruzain inh noDet
- CCN(CC)c1nn2c(=O)c(C(=O)NCCc3cccc(C)c3)cnc2s1
 : x | -9.6% | x | u | x | 0% | x | -4%
- COc1ccc(N2C(=O)CS/C2=C\[N+](=O)[O-])cc1
 : 7% | -5.1% | u | 17% | u | 10% | -16% | 2%
- Cc1ccc2nc(N(Cc3cccnc3)C(=O)c3ccc4c(c3)OCCO4)sc2c1
 : x | 3.9% | x | 19%[46.1 µM] | x | 36%[activator] | x | -6%
- CCOC(=O)N/N=C/c1c(C)c(C(=O)c2ccc(F)cc2)n2ccccc12
 : 8%[46.1 µM] | x | x | 0% | 0% | 14% | 4% | x
- O=C(NCc1ccccc1)C1CCCN(S(=O)(=O)c2cccnc2)C1 (stereo unspecified)
 : 7%[46.1 µM] | -0.2% | 1% | -1% | 5% | -15% | -1% | -4%
- Cn1c(SCC(=O)c2ccc3c(c2)NC(=O)CO3)nc2ccccc21
 : 21%[46.1 µM] | x | 3% | 3%[46.1 µM] | 10% | 31%[activator] | 1% | x
- CCCCNS(=O)(=O)c1ccc2nc(-c3cccnc3)cc(C(=O)NCCCOCC)c2c1
 : x | 0.8% | x | 18%[46.1 µM] | x | 73%[activator] | -2% | 4%
- CCC(=O)Nc1cccc(Br)c1
 : 3% | -2.3% | -27% | 2% | -3% | -6% | -4% | 6%
- Cc1cc(-c2ccccc2)nc(N/N=C/c2ccc([N+](=O)[O-])cc2)n1
 : u | -6.7% | 16% | u | -24% | -14% | -7% | 14%
- COc1cccc(NC(=O)Nc2ccncc2)c1
 : -16% | x | 5% | 14% | -9% | 0% | -1% | x
- Cc1ccc(-c2nc(CCNC(=O)C(=O)Nc3ccc(C)c(Cl)c3)cs2)cc1
 : x | -0.5% | x | 10%[46.1 µM] | x | -25% | x | -2%
- Oc1ccc(NC(=S)N=Nc2c(O)[nH]c3ccccc23)cc1
 : u | x | 11% | u | 19% | 34%[activator] | 1% | x
